# Compound activity: PubChem BioAssay, Fisher Drug Discovery Resource Center
# NPYLR7 agonist = activates Aedes aegypti NPYLR7 receptor. HEK293T NPYLR7/Galpha15, GCaMP6s calcium fluorescence. activation, % at 10 µM. hit rate 0.15% among 270,000; in the data active = activation above about 40%;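 also: 0% = vehicle and 100% = reference agonist at the receptor; some compounds past the cut are filed as inactive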
# NPYLR7 agonist max-min = second read-out of NPYLR7 agonist, no call of its own (marks repeat the call); activation, %; measured here: Max-Min RFU normalised activation; some inactives read as strong as hits;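 span of the calcium signal over five minutes; 0% = vehicle and 100% = native peptide agonist; compound fluorescence can raise it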
# * hit, by the source's call; & = joins results of further samples. Only part of the results is shown; rates above refer to the full screens.
canonical_smiles | NPYLR7 agonist | NPYLR7 agonist max-min
Cc1ccc(OCCOc2c(Cl)cc(Cl)cc2/C=N\n2cnnc2)c(C)c1 | 7 | 7
C=CC(=O)Nc1cccc(-c2cccc(-c3ccc(F)cc3)n2)c1 | 0 | 9
CC1(C)CC(=O)c2c(O)cc(=O)n(-c3ccc(Cl)cc3)c2C1 | 4 | 8
COc1cccc(CSc2nnc(C(C)NC(=O)c3ccc([N+](=O)[O-])cc3Cl)n2-c2ccc(C)cc2)c1 (stereo not given) | 4 | 9
Cc1cc(C)n(-c2cc(C(C)C)nc3c(-c4ccccc4)c(C)nn23)n1 | 1 | 7
CCN1CCN(C(=O)CCN(Cc2ccccc2)c2nc(-c3ccccc3Cl)nc3ccccc23)CC1 | 27 | 30
C[C@@H]1CN(C(=O)c2nc3ccc(Cl)cn3c2CNCCc2ccco2)C[C@H](C)O1 | 21 | 9
CCN1CCN(C(=O)CCN(CCCN2CCOCC2)c2nc(-c3ccc(F)cc3)nc3ccccc23)CC1 | 15 | 18
CCCCN(C)S(=O)(=O)N1CCC(OC2CCC(C)CC2)CC1 (stereo not given) | -4 | -7
CC(C)CC(NC(=O)c1ccccc1)C(=O)N1CCC(c2ccccc2)CC1 (stereo not given) | 2 | -3
COc1cccc(/C=C2\SC(=S)N(C(C(=O)O)C(C)C)C2=O)c1 (stereo not given) | -4 | -11
Cc1ccn2c(=O)nc(SCC(=O)NCc3ccccc3Cl)nc2c1 | -1 | -2
CN(C)CC(=O)Nc1c2c(nc3c1CCC3)CCCC2 | 0 | -3
CCN(CC)c1cc(Cl)nc(SCc2cccc(C(=O)Nc3ccc(C)c(C)c3)c2)n1 | 31 | 29
C=CCC(=O)N1CCC(C(=O)Nc2ccc(-c3cccc(C)c3)cc2)CC1 | 5 | 3
NC(=O)c1nc(-c2ccccc2)nc2c1[nH]c(=O)n2-c1ccccc1 | 2 | 15
C/C(=N/Nc1nccnc1Cl)c1ccc(O)c(C)c1 | -6 | -13
CCN(CC)c1ccc(CN(CCOC)C(=O)C2CCC2)c(OS(=O)(=O)c2ccc(OC)cc2)c1 | 21 | 14
CN1CC2(CCCN(C(=O)c3ccc4c(c3)ncn4CCO)CC2)OC1=O (stereo not given) | 4 | 1
CCn1c(=O)c(C(=O)O)nn(-c2ccc(C)c(F)c2)c1=O | 9 | 8
Cc1ccc(SCC(=O)N2CCCC(c3nn[nH]n3)C2)cc1 (stereo not given) | -1 | -1
O=C1NC(=O)C(=Cc2ccc(F)cc2)S1 | 1 | 0
C=CCn1c(SCCN2C(=O)c3ccccc3C2=O)nc2sc3c(c2c1=O)CCCC3 | -4 | -5
Cc1cc(C(=O)COC(=O)C=Cc2ccco2)c(C)n1C | 5 | 3
Cc1ccc(Nc2ccc(N3CCN(C(=O)c4ccc([N+](=O)[O-])cc4)CC3)nn2)cc1 | 0 | 1
CNC(=O)CN(C1COC1)[C@@H]1C[C@@H]2CO[C@H](C(C)C)C[C@@H]2C1 | -6 | 0
Cc1ccc(-n2c(SCC(=O)C(C)(C)C)nnc2-c2ccncc2)cc1 | 4 | -2
O=C(Cn1cc(S(=O)(=O)N2CCCC2)ccc1=O)NC1CCCCCC1 | 2 | 2
COc1ccc(NC(=O)N2CCCC(C(=O)c3ccc(-c4ccccc4)cc3)C2)c(C)c1 (stereo not given) | 10 | -3
CCn1c(-c2cccc(C(F)(F)F)c2)csc1=Nc1ccc2[nH]c(=O)[nH]c2c1 | -3 | -9
COc1ccc(NC(=O)CSc2nnc3ccccn23)c(OC)c1 | 0 | -3
CN(C)c1ncccc1CNC(=O)c1cccc(-c2cn[nH]c2)c1 | -1 | 1
Nc1nc(Cl)cc(NC2CCCSC2)n1 (stereo not given) | -4 | -8
CCc1nc2c(c(=O)c3ccccc3n2C)c(=O)n1-c1ccccc1 | 3 | -1
COc1cc(=O)n(-c2ccc(F)cc2)nc1C(=O)N1CCN(C)CC1 | -4 | -3
CC(C)NC(=O)C1CCN(C2CCN(C(=O)CCCc3cn[nH]c3)CC2)CC1 | 22 | 12
COCC(=O)Nc1ccc(N2CCN(C(=O)CCCOc3ccccc3)CC2)nc1 | 6 | 11
COC(=O)C1CCN(CC(O)COCc2ccc(NC3CCN(C)CC3)cc2)CC1 (stereo not given) | 3 | 0
COc1ccc(CN2CCCC(CCNS(C)(=O)=O)C2)cc1C (stereo not given) | 2 | 3
C=C(C)COc1ccc(-c2nc(N)ncc2-c2ccc(Cl)cc2)c(O)c1 | 5 | 1
CCc1ccc(OCC(=O)Nc2nc3ncccn3n2)cc1 | 3 | 3
Cc1nc2c(C(=O)N3CCOC(C(F)(F)F)C3)cccc2[nH]1 (stereo not given) | 13 | 11
O=C(N/N=C\c1cccc2nccnc12)[C@@H]1CCCN1 | 1 | 32
CC(C)c1ccccc1OC1CC2CCC(C1)N2C(=O)c1ccc(CSc2ccc(F)cc2)cc1 (stereo not given) | 4 | 6
CC1=NCCn2c(CN(C)CC(C)C)ccc21 | 22 | 16
Cc1ccc(N=C2SCCN2c2nc3ccccc3[nH]2)cc1C | -5 | -6
CS(=O)(=O)c1ccc(S(=O)(=O)NC2CCC(c3ccccc3)CC2)cc1 (stereo not given) | -1 | 2
CC(Nc1ccccc1C#N)c1cccnc1 (stereo not given) | 2 | 2
CCN(CC)CCCn1c2c(c(SCC(=O)Nc3cc(C)ccc3C)nc1=O)CCC2 | 1 | 7
CCC(CC)CC(=O)N1CC(N2CCCCC2C)C1 (stereo not given) | 1 | -5
CC(=O)NCCC1CCCCN1C(=O)Nc1ccccc1-c1ccccc1 (stereo not given) | 8 | 4
CC(C)(C)CC(=O)N1CCN(c2ccc(S(C)(=O)=O)cc2[N+](=O)[O-])CC1 | -7 | -10
COc1ccc(C(=O)N2CC(=O)N(Cc3ccccc3)CC(OCc3ccccn3)C2)c(OC)n1 (stereo not given) | 18 | 6
Cc1ccc(-c2nccn2CCS(=O)(=O)c2ccc(F)cc2)cc1 | 13 | 1
COc1nn(C)cc1C(=O)NCCc1ccccc1 | 1 | 2
CCN(CC(=O)N(C)C)C(=O)c1cccc(CSc2nccn2C)c1 | 2 | -1
CCCCc1nn2c(N)c(C=C3C=CC(=O)C(OCC)=C3)c(=O)nc2s1 | 39 | 35
COc1ccc2cc(C3CN(CCC(=O)N4CCCC4)CCO3)ccc2c1 (stereo not given) | -1 | -9
O=S(=O)(NCCc1nnc2ccc(SCc3cccc4ccccc34)nn12)c1ccccc1 | 6 | -2
Cc1ccc2nc(NC3CC(C)(C)NC(C)(C)C3)cc(=O)n2c1 | -4 | -2

# The listing continues.
canonical_smiles | NPYLR7 agonist | NPYLR7 agonist max-min
COc1cn(CC(=O)N2CCCc3ccccc32)c(CSc2nnnn2C)cc1=O | -4 | -9
Cc1ccc(OCCNc2ncnc3cc(F)ccc23)cc1 | 13 | 7
CC(=O)Oc1c(C)cccc1C(=O)O | 14 | 10
O=C(Cc1cccs1)N1CCN(c2cc(Oc3ccc(F)cc3Cl)ncn2)CC1 | 11 | 11
CSc1ccc(C(=O)N2CC(=O)N(C3CCCCC3)CC(OCc3ccccn3)C2)cc1 (stereo not given) | 8 | -2
CCCCCCn1c(N(C)Cc2ccccc2)nc2c1c(=O)[nH]c(=O)n2C | 5 | 8
CCS(=O)(=O)c1ccc2oc(=S)n(CN3CCC(C)CC3)c2c1 | 1 | -1
O=C(Nc1ccccc1C(=O)OC1CCCCNC1=O)c1ccco1 (stereo not given) | 1 | -4
CSc1ccc(C(=O)Nc2nnc(-c3cc(C)nn3C)o2)cc1 | -2 | -2
CCOC(=O)C1(Cc2ccc(OC)cc2)CCN(C(=O)COc2ccccc2OC)CC1 | 1 | -4
O=C(Nc1ccccc1)Nc1ccc(Nc2cc(-n3cccn3)ncn2)cc1 | -9 | -15
Cc1c(C(=O)NCc2ccc3c(c2)OCO3)cnn1-c1ncc2c(n1)-c1ccccc1CCC2 | 3 | 5
Nc1nc(N2CCCc3ccccc32)ncc1[N+](=O)[O-] | -1 | -4
COc1ccc(CN2CCCn3cccc3C2c2cccc(O)c2)cc1 (stereo not given) | 3 | 21
COC(=O)CCCCC(=O)Nc1ccc2[nH]cc(CCN3CCN(c4cccc(C(F)(F)F)c4)CC3)c2c1 | 2 | 8
CNc1sc(S(C)(=O)=O)nc1S(=O)(=O)c1ccc(Cl)cc1 | -5 | -3
O=c1/c(=C/c2ccccc2)sc2nc(-c3ccncc3)nn12 | -6 | -11
Cc1ccc(Cl)c2sc(NCCN(C)C)nc12 | 12 | 9
CCc1nc2ccc(C(=O)N(C)Cc3ccco3)cn2c1N(C)Cc1ccc(Cl)cc1 | -2 | 53
COc1ccc(C(=O)Nc2ccc(Nc3ccc(-n4ccc(C)n4)nn3)cc2)cc1OC | -6 | -10
Cc1ccc(C2(O)CCN(C(=O)c3ccc4nc[nH]c4c3)CC2)nc1 | 3 | 1
CCCCCCc1ccc(C(=O)N(CCCC)CC(=O)Nc2cc(C(C)(C)C)nn2C)cc1 | -1 | 8
Cc1cc2nnc(C(=O)N3CCC4(CC3)C(=O)NCN4c3ccccc3)c(C)n2n1 | -4 | -9
Cc1cccc(NC(=O)CNC(=O)c2cncn2-c2ccc(F)cc2)c1C | 3 | -1
CC(C)Oc1cc(N(C)CC(C)N2CCOCC2)nc(N)n1 (stereo not given) | 1 | 0
Cc1ccc(CC2CCCN(C(=O)CNC(=O)C3CC3)C2)cc1 (stereo not given) | 3 | 0
COc1ccc2c(c1)C1(CC(=O)N(CC(=O)N(C)C)C1=O)C(=O)N2CCOc1cccc2c1OCCO2 (stereo not given) | -10 | -18
O=C(O)c1ccccc1S | -15 | -26
CC(C[N+](C)(C)C)OC(N)=O (stereo not given) | 0&13&-2&-6&0&6 | 14&0&-9&-11&-9&-2
O=C(N1CCN(c2nccc(-c3ccc(-n4ccnc4)cc3)n2)CC1)C(F)(F)C(F)(F)C(F)(F)F | 19 | 5
CCOc1ccccc1-c1cc(=O)c2cc(NC(C)=O)ccc2o1 | -6 | -4
O=C(O)C1CN(C(=O)C2COc3ccccc3C2)c2ccccc2O1 (stereo not given) | 0 | 0
CN1CCN(C(=O)c2cccc(-c3ccc4nnc(-c5cccc(C#N)c5)n4c3)c2)CC1 | 14 | -1
COc1cc(Cl)ccc1C(=O)NC1CCN(C(=O)C2CC2)CC1 | -4 | -5
CCS(=O)(=O)NCCc1csc2nc(-c3cccc(F)c3)nn12 | -2 | -3
Cc1ccc2nc(N3CCOCC3)c(C=C3SC(=S)N(CC(C)C)C3=O)c(=O)n2c1 | 7 | 9
COc1cccc2cc(-c3nc4ccccc4[nH]3)c(=Nc3cccc(C(F)(F)F)c3)oc12 | 10 | 4
Cc1c(C(=O)N(C)Cc2c(F)cccc2Cl)sc2nc[nH]c(=O)c12 | 5 | 1
O=[N+]([O-])c1ccc(-c2nc(-c3ccc(-c4nc(-c5ccc([N+](=O)[O-])cc5)nc5ccccc45)cc3)c3ccccc3n2)cc1 | 11 | 21
COc1ccc(-c2nnc(SCc3ccc(C#N)cc3)n2-c2ccccc2C)cc1OC | -3 | -2
C=CC(C)(O)CN(Cc1ccccc1)Cc1c(C)nn(-c2ccccc2)c1Oc1ccc(OC)cc1 (stereo not given) | 0 | 9
CCc1c(C)nn(-c2ccc(C(=O)NCCc3c[nH]c4ccccc34)cc2)c1C | -2 | -5
O=C(NCC1(c2ccccc2)CC1)c1ccc(Cl)c(Cl)c1 | 12 | 8
CC(NCc1cc2ccccc2n1C)c1ccccc1 (stereo not given) | 15 | 6
COc1ccc(-c2nnc3ccc(SCC(=O)Nc4ccc(C(C)=O)cc4)nn23)cc1OC | 6 | 17
Cc1cc(Cl)cc2c3c([nH]c12)CCC(NC(=O)C(C)CC(F)(F)F)C3 (stereo not given) | 32 | 18
NCCn1ncc2c(=O)n(Cc3cccc(C(F)(F)F)c3)cnc21 | -1 | -3
CC(C)c1ccc(Nc2ncccc2C#N)cc1 | 8 | 14
CSCCCNC(=S)Nc1ccc(F)c(Cl)c1 | 1 | 0
CSc1ncccc1C(=O)N(CC1CC1)C(C)C | -3 | -5
Cc1ccc(C2CCCN2CC(=O)NC(C)C)cc1 (stereo not given) | 6 | 2

# Molecules shown so far containing an aryl thioether with sulfur outside any ring:
canonical_smiles | NPYLR7 agonist | NPYLR7 agonist max-min
COc1cccc(CSc2nnc(C(C)NC(=O)c3ccc([N+](=O)[O-])cc3Cl)n2-c2ccc(C)cc2)c1 (stereo not given) | 4 | 9
Cc1ccn2c(=O)nc(SCC(=O)NCc3ccccc3Cl)nc2c1 | -1 | -2
CCN(CC)c1cc(Cl)nc(SCc2cccc(C(=O)Nc3ccc(C)c(C)c3)c2)n1 | 31 | 29
Cc1ccc(SCC(=O)N2CCCC(c3nn[nH]n3)C2)cc1 (stereo not given) | -1 | -1
C=CCn1c(SCCN2C(=O)c3ccccc3C2=O)nc2sc3c(c2c1=O)CCCC3 | -4 | -5
Cc1ccc(-n2c(SCC(=O)C(C)(C)C)nnc2-c2ccncc2)cc1 | 4 | -2
COc1ccc(NC(=O)CSc2nnc3ccccn23)c(OC)c1 | 0 | -3
CC(C)c1ccccc1OC1CC2CCC(C1)N2C(=O)c1ccc(CSc2ccc(F)cc2)cc1 (stereo not given) | 4 | 6
CCN(CC)CCCn1c2c(c(SCC(=O)Nc3cc(C)ccc3C)nc1=O)CCC2 | 1 | 7
CCN(CC(=O)N(C)C)C(=O)c1cccc(CSc2nccn2C)c1 | 2 | -1
O=S(=O)(NCCc1nnc2ccc(SCc3cccc4ccccc34)nn12)c1ccccc1 | 6 | -2
COc1cn(CC(=O)N2CCCc3ccccc32)c(CSc2nnnn2C)cc1=O | -4 | -9
CSc1ccc(C(=O)N2CC(=O)N(C3CCCCC3)CC(OCc3ccccn3)C2)cc1 (stereo not given) | 8 | -2
CSc1ccc(C(=O)Nc2nnc(-c3cc(C)nn3C)o2)cc1 | -2 | -2
COc1ccc(-c2nnc(SCc3ccc(C#N)cc3)n2-c2ccccc2C)cc1OC | -3 | -2
COc1ccc(-c2nnc3ccc(SCC(=O)Nc4ccc(C(C)=O)cc4)nn23)cc1OC | 6 | 17
CSc1ncccc1C(=O)N(CC1CC1)C(C)C | -3 | -5
